From PubChem
gsp antagonist – qHTS for Antagonists of gsp, the Etiologic Mutation Responsible for Fibrous Dysplasia/McCune-Albright Syndrome: qHTS; gsp-mutant cells, cAMP HTRF, 30 min; control for the full effect not named in the record; Potency, µM (titrated, usually from 76.9 µM), without a hit: top-dose activity change, negative = inhibition, hits mostly inhibitors; actives 0.4% (n = 340,000); AID 624288, 2012; active = falling curve of any shape with a large fitted effect; inconclusive = falling curve, mostly with a smaller effect; inactive = flat or rising curve; cell line not stated here;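 also: intracellular cAMP measured with PDE inhibitor Ro 20-1724 present during compound exposure; potency is read from the fitted curve at half-maximal effect; % is scaled to controls: 0 for no effect and ±100 for the full control effect; nearly all actives have a fitted effect of over 65% in size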
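HTRF cAMP read-out (cAMP-d2 plus anti-cAMP antibody-K in lysis buffer, 30 min RT). Before lysis, cells are exposed to compounds with […] for 30 min at 37C in DPBS containing Ca/Mg, BSA and Tween 20.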
gsp agonist – qHTS for Agonist of gsp, the Etiologic Mutation Responsible for Fibrous Dysplasia/McCune-Albright Syndrome: qHTS; AID 624287, 2012; gsp mutant cells, cAMP HTRF, 30 min; control for the full effect not named in the record; actives 0.13% (n = 340,000); Potency, µM (titrated, usually from 76.9 µM), for the others: at the highest dose activation (cAMP increase), usual class: activators; active = well fitted activation curve with a large enough effect; inconclusive = small, poorly fitted or top-dose-only effect, or another doubt; inactive = no such curve, though single readings can be large or run the other way; cell line not stated here;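 also: phosphodiesterase inhibitor Ro 20-1724 added with compounds to block cAMP breakdown; potency is read from the fitted curve at half-maximal effect; nearly all actives have a fitted effect of over 60% in size; about a fifth of the inactives were tested at one dose only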
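Cells stably selected in G418 were plated at 2000/well, grown 16-24 hr, then given compounds in DMSO with the PDE inhibitor […] (300 uM solution added) for 30 min at 37C; cAMP was read by HTRF.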
Menin MLL FP FL – qHTS Assay for Inhibitors Targeting the Menin-MLL Interaction in MLL Related Leukemias: Competition With Fluorescein Labeled MLL-derived Peptide. Fluorescence polarization, fluorescein-MLL peptide displacement from menin. FP activity change, % at 61.4 µM. 290,000 tested, under 10 active; inconclusive = falling polarisation curve, or a change in total fluorescence; inactive = total fluorescence flat and polarisation flat or rising; no compound was filed as active; the % refers to the polarisation; negative = inhibition;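 also: % of control where 0% means no effect; inhibitors lower the polarisation; unlabelled MLL peptide was the positive control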
TRPV1 PAM – HTS Assay for Compounds that Act as Potentiators of the Vanilloid Receptor 1 | potentiation, % at 8.33 µM | Transient receptor potential cation channel subfamily V member 1 (Homo sapiens), Q8NER1 | TRPV1-expressing cells, Fluo-8 calcium influx, capsaicin EC20 potentiation; host cell line not named in the record; control for the full effect not named in the record | actives 0.02% (n = 320,000); active means potentiation above 80%; inconclusive means 30% to 80%; inactive means below 30%; also: 0% is about no effect
Target sequence (Q8NER1 whole entry, looked up): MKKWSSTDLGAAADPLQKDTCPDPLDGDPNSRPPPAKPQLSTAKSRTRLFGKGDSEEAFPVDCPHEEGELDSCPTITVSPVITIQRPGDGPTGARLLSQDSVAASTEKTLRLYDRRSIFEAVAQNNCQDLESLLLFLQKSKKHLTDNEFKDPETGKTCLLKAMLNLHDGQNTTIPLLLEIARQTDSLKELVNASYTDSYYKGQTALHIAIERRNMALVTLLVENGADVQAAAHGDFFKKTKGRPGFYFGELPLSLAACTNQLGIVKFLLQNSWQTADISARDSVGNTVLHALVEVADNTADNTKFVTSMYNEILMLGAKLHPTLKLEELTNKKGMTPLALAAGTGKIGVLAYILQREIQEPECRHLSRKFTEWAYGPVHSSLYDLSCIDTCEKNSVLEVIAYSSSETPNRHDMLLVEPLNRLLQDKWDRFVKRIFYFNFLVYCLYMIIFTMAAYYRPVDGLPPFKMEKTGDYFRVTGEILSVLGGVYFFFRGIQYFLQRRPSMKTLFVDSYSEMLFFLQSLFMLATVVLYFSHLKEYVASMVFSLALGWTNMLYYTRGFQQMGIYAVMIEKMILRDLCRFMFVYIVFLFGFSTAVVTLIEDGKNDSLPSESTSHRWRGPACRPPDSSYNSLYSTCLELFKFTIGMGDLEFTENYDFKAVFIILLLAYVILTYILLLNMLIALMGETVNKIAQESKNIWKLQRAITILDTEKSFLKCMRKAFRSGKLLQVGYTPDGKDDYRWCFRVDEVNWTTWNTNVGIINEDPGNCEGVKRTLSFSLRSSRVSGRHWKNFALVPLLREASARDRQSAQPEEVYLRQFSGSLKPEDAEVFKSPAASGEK
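TRPV1-expressing cells were cultured overnight at 35.5C and loaded with Fluo-8 calcium dye for 40 to 90 min at room temperature. After a 10 s baseline, compound was added and calcium influx was read kinetically for 3 min (ex 480/em 520 nm).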
D2 potentiator – Beta-Arrestin HTS for Positive Allosteric Modulators of the Human D2 Dopamine Receptor: Potentiators; actives 0.23% (n = 360,000); DiscoveRx D2 beta-arrestin cells, luminescence, 90 min; 100% = 57 uM dopamine signal; D(2) dopamine receptor (Homo sapiens), P14416; potentiation, % (no concentration beside the values); active = potentiation of 50% or more; inconclusive = 30% to 50%; inactive = 30% or less;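 also: compound concentration not given in the record; tested on top of an EC20 dose of dopamine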
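PathHunter D2 cells, attached overnight at 37 deg C, received compound in DMSO plus dopamine at EC20 (50 nM final) for 90 min at 37 deg C. Beta-arrestin recruitment was read as luminescence after 1 h with detection reagent at ambient temperature.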
Sfp PPTase inh – qHTS Assay for Inhibitors of Bacillus subtilis Sfp phosphopantetheinyl transferase (PPTase); 4'-phosphopantetheinyl transferase ffp (Bacillus subtilis), Q9F4F7; Biochemical Sfp PPTase activity, qHTS; Potency, µM, for inactives: max response, negative = inhibition, actives largely listed as inhibitors; actives 3.5% (n = 310,000); AID 1490, 2009; active = well fitted inhibition curve with a large enough effect; inconclusive = small, poorly fitted or top-dose-only effect, or another doubt; inactive = no such curve, though single readings can be large or run the other way;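 also: the enzyme is Sfp with the accession as filed and its product quenches rhodamine fluorescence; potency is read from the fitted curve at half-maximal effect; 0% = enzyme reaction without inhibitor and -100% = no enzyme wells; top concentration of the series not given in the record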
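Compounds were incubated with enzyme (final 15 nM) for 15 min at room temperature before substrate addition started the reaction. Fluorescence at 525 nm excitation, 598 nm emission was recorded immediately and after 30 minutes.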
ClpP mod – qHTS Assay for Activators of ClpP. ATP-dependent Clp protease proteolytic subunit (Bacillus subtilis (strain 168)), P80244. purified B. subtilis ClpP, FRET peptide cleavage, 20 min. Potency, µM (doses to about 57.5 µM), for inactives: at the top dose activity change, negative = active. actives 1.9% (n = 340,000). AID 651965, 2013; active = well fitted falling curve with a large enough effect; inconclusive = small, poorly fitted or top-dose-only effect; inactive = no such curve, though single readings can be large or run the other way; also: potency is read from the fitted curve at half-maximal effect; the source files actives as falling curves though it sought activators and does not explain the sign; nearly all actives have a fitted effect of over 65% in size; many hits overshoot -100%
Target sequence (P80244 whole entry, looked up): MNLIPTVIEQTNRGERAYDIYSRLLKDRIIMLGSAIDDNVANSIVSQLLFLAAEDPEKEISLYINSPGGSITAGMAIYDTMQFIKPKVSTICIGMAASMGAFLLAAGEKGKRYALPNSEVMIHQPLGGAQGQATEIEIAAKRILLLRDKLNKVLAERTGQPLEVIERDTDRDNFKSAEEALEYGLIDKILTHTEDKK
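FRET quenching reversal measured ClpP activation: 10 microg/mL B. subtilis ClpP at pH 8 with the FRET-FV decapeptide, read at 430 nm after 320 nm excitation. The 20-min minus 0-min signal was scaled between DMSO/no-enzyme wells and ADEP (5.8 microM final).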
An asterisk follows results filed as active; ? = inconclusive; . = not tested or not shown; & = joins results of further samples; [ ] = dose if it differs, or a comment. Not all compounds are listed; the hit share may differ from the screen's.

SMILES	gsp antagonist	gsp agonist	Menin MLL FP FL	TRPV1 PAM	D2 potentiator	Sfp PPTase inh	ClpP mod
C[C@@H]1O[C@@H](O[C@H]2C[C@@H](O)[C@]3(CO)[C@@H]4C(CC[C@]3(O)C2)[C@@]2(O)CC[C@H](C3COC(=O)C3)[C@@]2(C)C[C@H]4O)[C@H](O)[C@H](O)[C@H]1O (some centres undefined)	-6%	.	.	-2	-13	.	-2.2%
Cc1cc(/C=C2\C(=O)NC(=O)N(C)C2=O)c(C)n1-c1ccc2c(c1)OCO2	5%	-21%	7.4	18	12	-15%	-1.3%
O=P(CCl)(Nc1ccccc1)C(Cl)(Cl)Cl (centres undefined)	1%	20%[15.4 µM]	-1.6	2	2	18%	.
COc1nc2ccccc2nc1N1CCN(C)CC1	4%	11%	?	2	-34	15%	-8.6%
CC(C)OP(=O)(Oc1ccc(C(O)C(Cl)(Cl)Cl)cc1)OC(C)C (centres undefined)	1%	-37%[inhibitor]	-1.2	-31	-12	-6%	2.7%
COc1ccc(-c2cc(=Nc3cccc(C(=O)O)c3)c3cc(C)ccc3o2)cc1	?	3%[15.4 µM]	1.2	3	-4	-2%	.
COC(=O)C1=C(c2cccc(C#N)c2)C[C@@H]2CC[C@H]1N2C(=O)NCCOc1ccccc1Cl	2%	-16%	.	-4	-5	.	-1.1%
CCOc1cc2c(cc1OCC)-n1cccc1C(c1cccc(F)c1F)NC2 (centres undefined)	-1%	-29%	0.5	2	-9	-13%	.
COC(=O)C1=CO[C@@H](C)[C@@H]2CN(CCc3c[nH]c4ccccc34)CC[C@H]12	4%	-1%	.	.	-10	.	-0.9%
CCC(=NCCCn1ccnc1)c1c(O)n(-c2ccc(OC)cc2)c(=O)[nH]c1=O	-1%	-2%[15.4 µM]	-3.6	-3	-3	-16%	-1.0%
CC(NCC#Cc1ccccc1)C(O)c1ccccc1 (centres undefined)	2%	-3%[15.4 µM]	3.1	0	-29	22%	?
CCN1C(=O)/C(=C/c2ccc(N(CC)CC)cc2OC)C(=O)NC1=S	-7%	-752%[inhibitor]	?	10	3	?	-0.3%
COC(=O)C1=C(c2ccc3ccccc3c2)C[C@@H]2CC[C@H]1N2C	5%	?	.	-6	-31	.	-4.1%
CCCN1CC(C)C(OC(C)=O)(c2ccccc2)CC1C (centres undefined)	6%	-5%	0.5	3	-4	11%	0.2%
CCCC(=O)c1c(O)[nH]c(=O)[nH]c1=O	8%	-42%	5.9	-6	0	1%	-1.4%
COc1ccccc1-n1c(O)c(C=NC2CC2)c(=O)[nH]c1=O	3%	0%	13	18	-23	9%	1.4%
Cn1c(O)c(C=NCCc2c[nH]c3ccccc23)c(=O)n(C)c1=O	?	4%	1.0	10	15	6%	-1.4%
CC(=Nc1ccc2c(c1)CCC2)c1c(O)n(C)c(=O)n(C)c1=O	2%	-20%	2.4	8	-1	13%	0.5%
CCOC(=O)c1ccccc1N	2%	11%	.	.	0	.	4.2%
COC(=O)C1=C(c2ccc(Cl)c(C(F)(F)F)c2)C[C@@H]2CC[C@H]1N2C(=O)NCCO	11%	-15%	.	-13	-11	.	1.5%
CC(=O)[C@H]1CC[C@H]2[C@@H]3CC[C@H]4C[C@H](O)CC[C@]4(C)[C@H]3C(=O)C[C@]12C	4%	.	5.6&1.5	4	.	-23%&-15%	1.3%
O=C(CCCC1=NS(=O)(=O)c2ccccc2N1)N1CCC2(CC1)OCCO2	7%	25%	0.3	5	-2	13%	-0.4%
Cc1ccc(C(=O)NC(O)C(Cl)(Cl)Cl)cc1 (centres undefined)	4%	6%	2.7	-16	-5	0%	-1.5%
O=C1NC(=O)C(=Cc2c(Cl)cccc2Cl)C(=O)N1	-12%	10%	.	.	13	.	1.2%
CCOc1ccccc1NC(=O)Cn1c(=O)oc2ccccc21	4%	?	2.9	0	-8	8%	-0.2%&0.4%
CCOC(=O)Cc1csc(NC(=O)c2c(O)c3ccccc3n(CCC(C)C)c2=O)n1	1%	10%[15.4 µM]	.	9	-10	-4%	.
CC=C(CC)C1(CC)C(=O)NC(=S)NC1=O	12%	17%	.	.	-2	.	-0.7%
O=C1NC(=O)N(CC2CCCO2)C(=O)/C1=C/c1cccs1 (centres undefined)	4%	-39%[inhibitor]	8.4	19	3	79µM*	0.4%
O=C(Nc1ccccc1)c1c(O)[nH]c(=O)[nH]c1=O	10%	-20%	.	.	-16	.	-1.5%
CC1C(c2ccccc2)OC(=O)N1C (centres undefined)	3%	3%	.	.	-10	.	.
O=C(c1c[nH]c(C(=O)C(Cl)(Cl)Cl)c1)c1ccccc1Cl	1%	?	0.7	8	-4	0%	0.9%
CCN(CC(=O)Nc1ccc(C#N)c(Cl)c1)CC(=O)NC(C)(C)C	-38%	-5%[15.4 µM]	6.7	-21	-3	4%	-5.0%
OC(CNCCc1c[nH]c2ccccc12)C(F)(F)F (centres undefined)	-8%	-3%	-3.0	-1	3	3%	.
CSc1ncc(/C=C2/C(=O)NC(=O)N(c3ccc(Cl)cc3)C2=O)cn1	-1%	?	?	17	2	56µM*	.
Cc1nn(C)c(C)c1P(=S)(c1c(C)nn(C)c1C)N(C)C	-12%	-29%	0.0	28	-10	-13%	1.6%
CC(C)CCNC(=O)c1cc(C(=O)c2cc(F)ccc2O)cn(CCC(C)C)c1=O	-10%	9%[15.4 µM]	-3.8	-5	-4	-2%	.
O=c1c([N+](=O)[O-])cn(O)cc1[N+](=O)[O-]	-16%	-7%	.	.	-1	.	1.4%
CCOC(=O)C1=C(N)OC2=C(C(=O)CC(C)(C)C2)C12C(=O)Nc1ccccc12 (centres undefined)	1%	-24%	0.8	1	-3	-3%	0.0%
CN1CC(C(=O)c2ccccc2)C(C(=O)c2ccccc2)C1 (centres undefined)	6%	-28%	0.8	-35	-15	-8%	1.2%
C=CCn1c(O)c(C(C)=NCCCn2ccnc2)c(=O)[nH]c1=O	5%	19%	17	8	-7	10%	.
O=c1[nH]c(=S)[nH]c(O)c1N=Nc1cc2c(cc1[N+](=O)[O-])OCO2	.	-10%[15.4 µM]	2.4	-2	-35	10%	.
COc1ccc(-n2c(/C=C/c3ccc(O)c(O)c3)nc3ccccc3c2=O)cc1	?	1%	?	6	-2	-23%	-1.1%
CC(C)Sc1nnc([C@@H](N)Cc2c[nH]c3ccccc23)o1	-15%	4%	-1.5	2	-7	2%	0.0%
N=c1c[n+](C2CCCCC2)[n-]o1	9%	-17%	0.3	-5	-8	8%	-1.1%
C[C@]12C[C@@H](O)[C@H](O)CC1=CCC1C2CC[C@]2(C)C(=O)CCC12 (some centres undefined)	-3%	15%[15.4 µM]	.	.	6	.	-0.6%
O=C(N=Nc1c(O)[nH]c(=O)[nH]c1=O)C1COc2cc3ccccc3cc2O1 (centres undefined)	-2%	5%[15.4 µM]	6.6	18	0	56µM*	.
O=C1NC(=O)N(CCNc2ncc(C(F)(F)F)cc2Cl)C(=O)C1/C=N/OCc1c(F)cccc1Cl (centres undefined)	-12%	1%	-1.7	-12	-2	7%	-1.7%
COc1cc(N)c(Cl)cc1C(=O)NC1CN2CCC1CC2 (centres undefined)	.	.	0.3	6	.	15%	.
CC1(C)CC[C@]2(C)CC[C@]3(C)C4C[C@@H]5OO[C@@]6(O5)C(CCCC6(C)C)[C@]4(C)CC[C@@]3(C)C2C1 (some centres undefined)	-2%	.	.	.	-26	.	1.6%
CN1Cc2cnnn2-c2ccccc2C1C#N (centres undefined)	-4%	.	.	.	-3	.	-1.0%
O=C(O)c1ccccc1-c1ccc(C=C2C(=O)N(c3ccccc3)C(=S)N(c3ccccc3)C2=O)o1	-9%	6%	?	12	24	50µM*	-22%
Nc1nc2c(s1)CCCCCCCCCC2	1%	?	1.2	5	1	5%	.
O=C1NC(=O)C(CCc2ccncc2)(Cc2ccc3c(c2)OCO3)C(=O)N1CCc1ccccc1 (centres undefined)	-8%	-10%	2.8	2	-3	-15%	-2.9%
Fc1ccc(CN2CCN(c3ccc(Cl)cc3)CC2)cc1	3%	8%	1.5	10	-13	4%	-0.4%
COC(=O)C1=C(c2ccc(OC(F)(F)F)cc2)C[C@@H]2CC[C@H]1N2C(=O)NCCOc1ccccc1Cl	-11%	9%	.	7	-7	.	3.4%
CC1=CC2OC3CC4OC(=O)C=CC=CC(C(C)O)OCC(O)C(C)CC(=O)OCC2(CC1O)C4(C)C31CO1 (centres undefined)	17%	2%	.	.	-19	.	0.5%
O=P(Oc1ccc(-c2ccccc2)cc1)(N1CC1)N1CC1	11%	-5%[15.4 µM]	.	.	-4	.	0.1%
Cc1ccc(N=C(N(C)C)P(=O)(N(C)C)N(C)C)cc1	7%	-40%[inhibitor]	-0.8	3	-6	0%	.
C#CC1(OC(=O)c2ccccc2)CC(C)N(C)CC1C (centres undefined)	2%	5%	0.3	6	-44	26%	0.1%
COc1ccc(OCC(=O)Nc2ccc(Cl)cc2C(=O)c2ccccc2)cc1	13%	-26%	0.3	-20	-8	22%	2.5%
CN(C)S(=O)(=O)c1cc(NC(=O)COC(=O)Cc2ccccc2)ccc1Cl	2%	26%	7.9	-1	-24	6%	-3.3%
CC(C)N1CCN(c2ccc(O)cc2)CC1	-3%	-2%	2.8	-3	-11	-91%	-4.9%
CCCCCCCn1c(=O)c(C(=O)Nc2cnccn2)c(O)c2ccccc21	4%	15%[15.4 µM]	14	-3	-3	18%	.
